From PubChem
AID504770 = growth inhibitors of E. coli YBA685 in a screen for V. cholerae RctB (chromosome II replication) inhibitors. 0.27% of 130,000 active. E. coli YBA685 rctB-dependent plasmid, OD600 growth, 3 h; hits give low values. z-score (test concentration not listed);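 active means z-score under -2 on both plates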;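 further: wells of about 30 µL received 100 nL stock; score is relative to mean and SD of the test wells; the first replicate is given; strong numbers were not always called active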
Ba CapD inh = CapD enzyme inhibition. purified CapD enzyme, fluorescence intensity read-out; hits give low values; some hits fall short of the stated cut. z-score (no concentration beside the values). 0.23% of 140,000 active;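 active means z-score under -4 in either of two replicates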;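 further: stock transfer was 100 nL into about 40 µL; score is relative to mean and spread of the plate; one replicate is shown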
Active calls of the source: *. These rows are one share of the data; rates above refer to the full screens.

Results for c1csc(-c2nnc3n2C2(CCCC2)Cc2ccccc2-3)c1 ?
AID504770: -0.15; Ba CapD inh: -0.19

Results for O=C1N(Cc2ccccc2)CCCC12CCCN(Cc1ccccc1)C2=O ?
AID504770: -0.4; Ba CapD inh: 0.025

How did Cc1cc(C)n(-c2nc(NC(C)C)nc(NC(C)C)n2)n1 do in these assays?
AID504770: 2; Ba CapD inh: 0.02

What do the screens show for `O=C1CCN=C(SCC(=O)Nc2ccccc2)N1`?
AID504770: 0.35; Ba CapD inh: 0.1

Results for Cc1cc(Br)ccc1N1C(=O)/C(=C/c2ccc(Cl)cc2)C=C1c1ccccc1 ?
Ba CapD inh: -0.32

How did CCCN(CC(=O)Nc1ccccc1C(=O)NC1CC1)Cc1nnc(-c2ccco2)o1 do in these assays?
AID504770: -0.05

Results for CC(C)C(=O)Nc1ncc(Cc2ccccc2)s1 ?
AID504770: 0.2; Ba CapD inh: 0.22

What do the screens show for `O=C(Nc1cccc(Cl)c1)c1scc2c1OCCO2`?
AID504770: -0.4; Ba CapD inh: 1.34

Results for Oc1ccccc1-c1csc(-c2ccccc2)n1 ?
AID504770: 0; Ba CapD inh: 0.09

How did CN(C)c1ccc(NC(=O)COC(=O)c2ccc(Br)cc2)cc1 do in these assays?
AID504770: 0.1

What do the screens show for `CCOc1ccc(-c2csc(-c3cc4cc(Br)ccc4oc3=O)n2)cc1`?
Ba CapD inh: -0.385

Results for CCOC(=O)NC(=O)Cn1c(=O)cnc2ccccc21 ?
AID504770: -0.55

Results for Cc1c(C(N)=O)nnc2cc(-c3ccccc3)nn12 ?
AID504770: 0.2; Ba CapD inh: 1.11

What do the screens show for `O=C(Nc1ccc2nc(NC(=O)c3ccc([N+](=O)[O-])cc3)sc2c1)c1ccc([N+](=O)[O-])cc1`?
Ba CapD inh: -0.015

Results for CCNC(=S)/N=C(\N)Nc1nc(C)c2cc(C)ccc2n1 ?
AID504770: 3.5; Ba CapD inh: -0.835

How did CCn1c(O)c(/C=N/c2ncn[nH]2)c(=O)n(CC)c1=S do in these assays?
AID504770: 1.45

How did CCCN(CCC)CC(O)Cn1c2ccccc2c2ccccc21 (centres undefined) do in these assays?
Ba CapD inh: 1.56

Results for CC1CCN(C(=O)c2cc3nc(-c4ccco4)cc(C(F)(F)F)n3n2)C(C)C1 (centres undefined) ?
AID504770: 0.7; Ba CapD inh: 0.07

What do the screens show for `Nc1ncc(C(=O)OCc2ccc(Cl)cc2)c(C(F)(F)F)n1`?
AID504770: 0.85; Ba CapD inh: 4.29

How did O=C(CSc1cccc[n+]1[O-])NC(=O)NC1CCCC1 do in these assays?
AID504770: -0.75

Retrieved by compound from the entries so far:
How did CCn1c(O)c(/C=N/c2ncn[nH]2)c(=O)n(CC)c1=S do in these assays?
AID504770: 1.45

Results for CC1CCN(C(=O)c2cc3nc(-c4ccco4)cc(C(F)(F)F)n3n2)C(C)C1 (centres undefined) ?
AID504770: 0.7; Ba CapD inh: 0.07

Three compounds out of the list, sorted by length of the SMILES, highest first.
Results for Cc1cc(Br)ccc1N1C(=O)/C(=C/c2ccc(Cl)cc2)C=C1c1ccccc1 ?
Ba CapD inh: -0.32

Results for c1csc(-c2nnc3n2C2(CCCC2)Cc2ccccc2-3)c1 ?
AID504770: -0.15; Ba CapD inh: -0.19

What do the screens show for `O=C(Nc1cccc(Cl)c1)c1scc2c1OCCO2`?
AID504770: -0.4; Ba CapD inh: 1.34

Additional structures.
What do the screens show for `O=C1C2C3C=CC(C3)C2C(=O)N1CCN1CCN(S(=O)(=O)c2cccs2)CC1` (centres undefined)?
AID504770: 0.3

How did NNc1ccc(C(F)(F)F)cn1 do in these assays?
AID504770: 1.35; Ba CapD inh: 0.4

How did CN1C(=O)C(O)N=C(c2ccccc2)c2cc(Cl)ccc21 (centres undefined) do in these assays?
Ba CapD inh: -0.72

What do the screens show for `O=C1CCC(=O)N1CN(Cc1ccccc1)CN1C(=O)CCC1=O`?
AID504770: -1; Ba CapD inh: 0.125

What do the screens show for `Cc1ccc(-n2cc(C(C)(C)C)[nH]c2=S)cc1`?
AID504770: -0.8; Ba CapD inh: 0.41

What do the screens show for `CCCn1c(/N=C/c2ccccc2Cl)nc2ccccc21`?
AID504770: 1.3; Ba CapD inh: 0.025

How did COC(=O)C1=C(N)n2c(s/c(=C/c3ccncc3)c2=O)=C(C(=O)OC)C1c1ccncc1 (centres undefined) do in these assays?
AID504770: -0.6; Ba CapD inh: 0.535

Results for CCCCC(NC1CCS(=O)(=O)C1)C(=O)O (centres undefined) ?
AID504770: -0.55; Ba CapD inh: 0.23

Results for Cn1c(=O)oc2cc(S(=O)(=O)NC3CCCc4ccccc43)ccc21 (centres undefined) ?
AID504770: 0; Ba CapD inh: 0.635

Results for Cc1ccccc1-c1nc(CN2CCC(C(=O)NCC3CCCO3)CC2)c(C)o1 (centres undefined) ?
AID504770: 0.6; Ba CapD inh: -0.26

Results for COc1ccc(-c2nnc(-c3cccnc3)o2)cc1OC ?
AID504770: -0.05; Ba CapD inh: 12.4

What do the screens show for `CCC1CCCCN1P(=O)(c1ccc(C)o1)C(C)(C)C` (centres undefined)?
AID504770: -1

What do the screens show for `Cc1ccccc1NC(=O)CCC(=O)O`?
AID504770: 1.65; Ba CapD inh: 0.145

What do the screens show for `CN(Cc1ccccc1)c1nnc(N)s1`?
AID504770: -0.9; Ba CapD inh: -0.475

Results for COc1ccc(-c2cc(-c3ccccc3)nc(SCC(=O)O)c2C#N)cc1 ?
Ba CapD inh: 5.54

What do the screens show for `N#C/C(=C\c1ccccc1/C=C(\C#N)c1ccc2c(c1)OCO2)c1ccc2c(c1)OCO2`?
AID504770: 0.2; Ba CapD inh: 4.75

How did CCOC(=O)c1ccc2nc(NC(=O)c3ccc(F)c(Cl)c3)sc2c1 do in these assays?
Ba CapD inh: 8.23

What do the screens show for `CC(=O)Nc1sc(C)c(C)c1CN1CCN(S(=O)(=O)c2ccccc2)CC1`?
AID504770: -0.5

Results for CCOc1ccc(-c2cn3nc(-c4ccc(Br)cc4)n4c3c2CCCC4)cc1 ?
Ba CapD inh: -0.43

What do the screens show for `Cc1cccc(OCC(=O)NCCc2ccccn2)c1`?
AID504770: -0.1

The list goes on, overlapping the part above by 2 compounds.
Results for CCOc1ccc(-c2cn3nc(-c4ccc(Br)cc4)n4c3c2CCCC4)cc1 ?
Ba CapD inh: -0.43

What do the screens show for `Cc1cccc(OCC(=O)NCCc2ccccn2)c1`?
AID504770: -0.1

Results for NS(=O)(=O)c1ccc(CCNc2ncnc3c2c(-c2ccccc2)cn3-c2ccccc2)cc1 ?
Ba CapD inh: 0.2

How did OCCNc1ccc(Cl)cc1 do in these assays?
AID504770: 0

What do the screens show for `COc1ccccc1NC(=O)c1ccc(C)o1`?
AID504770: -0.75

What do the screens show for `COC(=O)Cn1c(=NC(=O)C(C)C)sc2cc(Cl)ccc21`?
AID504770: -0.1; Ba CapD inh: 0.065

How did Cc1cc(C(=O)NNC(=O)OCc2ccc(C(C)(C)C)cc2)n[nH]1 do in these assays?
Ba CapD inh: -0.395

How did O=C(CCC(=O)N1CCc2ccccc21)N1CCc2ccccc21 do in these assays?
AID504770: 0.4

What do the screens show for `CCC(C)(C)C1CCC(=O)C(C2(O)C(=O)N(C)c3ccccc32)C1` (centres undefined)?
AID504770: -0.3; Ba CapD inh: 0.08

How did CC(OC(=O)c1cccnc1)C(=O)Nc1ccc(Br)cc1 (centres undefined) do in these assays?
AID504770: 1.4

How did CCn1c2c(c3cc(Br)ccc31)CCCC2=O do in these assays?
AID504770: -0.4; Ba CapD inh: 0.24

What do the screens show for `CCCOc1ccc(NC(=O)c2cc(=O)n(C)c(=NC)s2)cc1Br`?
AID504770: 1.95; Ba CapD inh: -0.05

How did COc1cccc(C2=NN(C(=O)CCc3ccccc3)C(O)(C(F)(F)F)C2)c1 (centres undefined) do in these assays?
Ba CapD inh: 0.165

What do the screens show for `O=S1(=O)N=C(SCCO)c2ccccc21`?
AID504770: 0

What do the screens show for `NC1CCSc2ccccc21` (centres undefined)?
AID504770: -0.75

How did N#Cc1c(N)nc2sc(C(=O)c3ccc(Br)cc3)c(N)c2c1-c1ccccc1 do in these assays?
Ba CapD inh: 0.495

How did COC(=O)c1ccc(CNC(=O)c2cc3c(s2)CCCC3)cc1 do in these assays?
AID504770: -0.05; Ba CapD inh: 0.095

Results for Cc1cc(C)c(C#N)c(SCC(=O)c2cc(C)n(C3CCS(=O)(=O)C3)c2C)n1 (centres undefined) ?
AID504770: 0.75

Results for CCCOc1ccc(-c2cc(C(=O)NO)[nH]n2)cc1C ?
AID504770: -0.8; Ba CapD inh: -0.885

Results for COCCCNC(=O)c1sc2nc(C)nc(N3CCN(c4ccccn4)CC3)c2c1C ?
Ba CapD inh: 0.62

What do the screens show for `CCOC(=O)c1ccc(Nc2c(N)c(=O)oc3ccccc23)cc1`?
AID504770: 0.95; Ba CapD inh: -0.515

How did Cc1[nH]n(-c2ccccc2)c(=O)c1C(c1ccc(Cl)cc1)c1c(C)[nH]n(-c2ccccc2)c1=O do in these assays?
Ba CapD inh: -0.39

Next section (2 carried over from the part before).
What do the screens show for `CCOC(=O)c1ccc(Nc2c(N)c(=O)oc3ccccc23)cc1`?
AID504770: 0.95; Ba CapD inh: -0.515

How did Cc1[nH]n(-c2ccccc2)c(=O)c1C(c1ccc(Cl)cc1)c1c(C)[nH]n(-c2ccccc2)c1=O do in these assays?
Ba CapD inh: -0.39

How did COc1ccccc1OC(=O)CN1C(=O)c2ccccc2C1=O do in these assays?
AID504770: -1.1; Ba CapD inh: -0.6

Results for Cc1ccc(NC(=S)N2CCC(Nc3nccc(C(F)(F)F)n3)CC2)c(C)c1 ?
AID504770: -0.6; Ba CapD inh: 1.37

What do the screens show for `CCOC(=O)CN1C=NS(=O)(=O)c2ccccc21`?
AID504770: 0.4; Ba CapD inh: -0.895

How did NNC(=O)c1ccc2[nH]c3c(c2c1)CCCC3 do in these assays?
AID504770: -0.35

Results for Cc1ccc(CS(=O)Cc2ccc(C(=O)N3CCN(c4ccccc4)CC3)o2)cc1 (centres undefined) ?
AID504770: -0.35; Ba CapD inh: 0.15

Results for C=CCOc1ccccc1CNc1ccc(C)cc1 ?
AID504770: -0.5; Ba CapD inh: 14.6

Results for O=C(Nc1cccnc1)c1c2c(nc3ccccc13)C(=O)N(C1CCCCC1)C2 ?
AID504770: -0.3; Ba CapD inh: -0.4

How did O=C(Nc1ccccc1C(=O)N1CCN(c2ccccc2)CC1)c1cccc(S(=O)(=O)N2CCOCC2)c1 do in these assays?
Ba CapD inh: -0.68

Results for CCCCC1CCC(C(=O)O)CC1 (centres undefined) ?
AID504770: -0.5; Ba CapD inh: 0.565

Results for O=C(Nc1nc(-c2ccc3c(c2)CCN3C(=O)C2CCCCC2)cs1)c1ccco1 ?
AID504770: 0.75

Results for CCN1C(=O)NC(c2ccc(Cl)cc2)C2=C1CCCC2=O (centres undefined) ?
AID504770: 0.1; Ba CapD inh: 15.1

How did COc1ccc(OCC2c3cc(OC)c(OC)cc3CCN2C(=O)C(C)C)cc1 (centres undefined) do in these assays?
AID504770: -1.1; Ba CapD inh: -0.02

Results for CCCCNC(=O)c1cn(C)c(=O)c2cc(OC)c(OC)cc12 ?
AID504770: -0.7; Ba CapD inh: 1.77

Results for CC(C)OC(=O)C1CC(C)(O)C(=O)C(C(=O)OC(C)C)C1c1ccc(N(C)C)cc1 (centres undefined) ?
AID504770: -0.05; Ba CapD inh: 0.475

What do the screens show for `CCCSc1ncccc1C(=O)Nc1cc(C)no1`?
AID504770: -0.45; Ba CapD inh: -0.69

Results for Cc1cc(NCCO)n2c(nc3ccccc32)c1C#N ?
AID504770: 0.05; Ba CapD inh: -0.155

Results for O=C(c1cc(-c2ccc(O)cc2)on1)N1CCCc2ccccc21 ?
AID504770: 0.6; Ba CapD inh: -0.93

How did COc1cc(NC(=O)COn2nnc3ccc(S(C)(=O)=O)cc32)cc(OC)c1 do in these assays?
AID504770: 0

How did O=C(Cc1ccccc1)Nc1ccc(N2CCOCC2)c(C(=O)O)c1 do in these assays?
AID504770: 0.85; Ba CapD inh: 0.955

What do the screens show for `CCNc1nc(N)c(C(=O)c2ccc(F)cc2)s1`?
AID504770: 0.65; Ba CapD inh: -1.81

How did Cc1cnc(C(=O)OCc2ccc(COC(=O)c3cnc(C)cn3)cc2)cn1 do in these assays?
AID504770: 0.25

Results for CC1(C)CC2CC(C)(CN2Cc2c(O)ccc3cc(-c4ccccn4)c(=O)oc23)C1 (centres undefined) ?
AID504770: 0.25; Ba CapD inh: 23.6

What do the screens show for `S=CC1=C2NCCCN2C2CCCCC12` (centres undefined)?
AID504770: 1.45; Ba CapD inh: -0.24

Results for Clc1ccc2c(N3CCCCC3)ccnc2c1 ?
AID504770: -0.4; Ba CapD inh: 0.18

How did Cc1c(OCc2ccccc2)c(=O)ccn1Cc1c(F)cccc1Cl do in these assays?
Ba CapD inh: -0.625

How did CC1CCC2(CC1)Oc1ccccc1C1CC(c3ccco3)=NN12 (centres undefined) do in these assays?
AID504770: -0.7; Ba CapD inh: 0.015

How did COC(=O)/C(=C(/O)CSc1nnnn1-c1ccc(O)cc1)c1nc2ccccc2[nH]1 do in these assays?
AID504770: 0.4

What do the screens show for `CC1=NOC(=O)/C1=C\C=C/c1ccccc1`?
AID504770: -0.4; Ba CapD inh: 2.08

How did CC1Cn2c(C(=O)N3CCc4ccccc4C3)cc3c(Cl)ccc(c32)O1 (centres undefined) do in these assays?
AID504770: 0.6; Ba CapD inh: 7.22

What do the screens show for `O=C(O)C1C2C=CC(C2)C1C(=O)N1CCc2c([nH]c3ccccc23)C1C(F)(F)F` (centres undefined)?
AID504770: -0.25; Ba CapD inh: -0.315

How did Cn1nc(-c2ccccc2)c(COC(=O)c2ccc([N+](=O)[O-])cc2)c1Cl do in these assays?
Ba CapD inh: -0.21
